N370S GC – inhibitors or activators of N370S glucocerebrosidase for Gaucher disease; P04062; N370S GC spleen homogenate, 4MU-glucoside fluorescence; Potency, µM (series often up to 59.4 µM), inactives show at the top dose activity change, negative = inhibition, actives largely listed as inhibitors; 330,000 compounds, 0.092% hits;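 note: 0% = full enzyme activity and -100% = no enzyme basal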
FEN1 inhibitor – inhibitors of human flap endonuclease 1; Recombinant FEN1 flap cleavage, fluorescence, 15 min; AID 588795; Potency, µM (highest dose often 114 µM), for the others: at the highest dose activity change, negative = inhibition, most hits filed as inhibitors; P39748; 390,000 compounds, 0.35% hits; note: nearly all actives have a fitted effect of over 65% in size
Target sequence (P39748 whole entry, looked up): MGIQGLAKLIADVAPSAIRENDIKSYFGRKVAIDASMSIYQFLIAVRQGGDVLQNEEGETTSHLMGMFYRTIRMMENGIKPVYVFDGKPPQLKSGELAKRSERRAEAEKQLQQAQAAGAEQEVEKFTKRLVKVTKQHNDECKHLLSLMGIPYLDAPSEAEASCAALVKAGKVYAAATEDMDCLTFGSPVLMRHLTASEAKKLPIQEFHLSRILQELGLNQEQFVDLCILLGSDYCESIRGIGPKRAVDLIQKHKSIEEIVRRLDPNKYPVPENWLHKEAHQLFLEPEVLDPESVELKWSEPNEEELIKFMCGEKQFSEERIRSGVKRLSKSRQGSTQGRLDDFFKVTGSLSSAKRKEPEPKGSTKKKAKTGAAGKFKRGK
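In this screen, 50 nM flap DNA substrate was added to 10 nM FEN1 pretreated with compound for 15 min at room temperature; cleavage was followed with reads at 0 and 15 min, and Hill fitting gave concentration–response parameters.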
The depositor's hits bear a star; ? = inconclusive; . = no result given; & = joins results of further samples. Calls come from the whole dose curve; as a rule, active = well fitted curve in the direction sought with a large enough effect; inconclusive = small, poorly fitted or top-dose-only effect, or another doubt; inactive = no such curve, though single readings can be large; an effect the other way counts as inactive or inconclusive. Unless noted, % is set by controls: 0 for no effect and ±100 for the full control effect; potency is the fitted concentration of half-maximal effect. Not all compounds are listed; most or all hits stand in other tables.

SMILES | N370S GC | FEN1 inhibitor
CCCCn1c(N)c(N(CC(C)C)C(=O)c2cc(-c3ccncc3)nc3ccccc23)c(=O)[nH]c1=O | 2% | 5%
Cn1c(-c2ccc3c(c2)OCO3)cnc1N | 0% | 4%
O=C(CCSc1nc(-c2ccco2)cc(C(F)(F)F)n1)Nc1ccc2c(c1)OCO2 | -5% | 8%
O=C(CSc1nnc(-c2ccccc2)n1Cc1ccccc1)NC1CC1 | 4% | 5%
Cc1ccc(-n2cnc3c(sc4nc(N5CCOCC5)c5c(c43)CCCC5)c2=O)cc1 | 16% | 0%
FC(F)(F)Oc1ccc(NC(=S)Nc2ccc(OC(F)(F)F)cc2)cc1 | 5% | 10%
O=c1[nH]c(=O)n(C2CC(O)C(CO)O2)cc1I (centres undefined) | . | 2%
CCOC(=O)C1=C(N)Oc2cc(C)[nH]c(=O)c2C1c1ccncc1 (centres undefined) | 10% | -3%
CC(C)(C)c1ccc(CSC2=Nc3ccccc3C3=NC(CC(=O)NCc4cccs4)C(=O)N23)cc1 (centres undefined) | . | -8%
Cc1ccc(Cc2c(C)nc3nc(SCC(=O)NC4CCC(C)CC4)nn3c2C)cc1 (centres undefined) | . | -4%
Cc1cccc(NCc2nc3ccccc3n2CCOc2ccccc2C)c1 | . | -24%
Nc1ncnc2nc(SCc3ccc(Cl)cc3Cl)[nH]c12 | . | 1%
COc1ccc(-c2cc(CNC(C)=O)on2)cc1 | -3% | -6%
COc1ccc(C(=O)N2CCC(n3c(C)nc4cc(F)ccc43)CC2)cc1 | -1% | -5%
CCOc1ccc(OCC(=O)Nc2ccccc2N2CCCC2)cc1 | 10% | -19%
O=C(COc1ccccc1)N1CCN(S(=O)(=O)c2ccc(Cl)cc2)CC1 | 20% | -9%
O=C(c1cc(-c2cccc(Cl)c2)on1)N1CCc2ccccc2C1 | -21% | -4%
O=C(NCc1ccc(F)cc1)c1cccc(N2CCCS2(=O)=O)c1 | . | -1%
Clc1ccccc1Nc1nnc(-c2ccncc2)s1 | 7% | -2%
COc1ccc(OC)c(NC(=O)COC(=O)Cc2ccsc2)c1 | . | -10%

Quoted from the results shown, three compounds:
SMILES | N370S GC | FEN1 inhibitor
O=C(COc1ccccc1)N1CCN(S(=O)(=O)c2ccc(Cl)cc2)CC1 | 20% | -9%
O=C(c1cc(-c2cccc(Cl)c2)on1)N1CCc2ccccc2C1 | -21% | -4%
O=C(NCc1ccc(F)cc1)c1cccc(N2CCCS2(=O)=O)c1 | . | -1%

The list goes on.
SMILES | N370S GC | FEN1 inhibitor
CC(=O)Nc1ccc(NC(=O)C(C)OC(=O)c2ccc(S(=O)(=O)N3CCCCCC3)cc2)cc1 (centres undefined) | . | 9%
CC1(C)Cc2ccccc2C(N/N=C/c2cccc(F)c2)=N1 | 2% | -5%
CCOC(=O)CN1C(=O)NC(C)(c2ccc(OC(F)F)cc2)C1=O (centres undefined) | 4% | -3%
CCC1(CC)Cc2ccccc2C(CC(=O)N2CCOCC2)=N1 | -8% | -4%
S=C(NCc1ccco1)Nc1ccc(Cl)cc1Cl | 1% | 1%
Oc1c(C=C2N=c3ccccc3=N2)sc(=S)n1C1CCCCC1 | 27%&3% | -5%&-6%
Cc1ccccc1OCC(=O)NNC(=O)c1ccoc1C | . | 8%
Cc1cc(C)c2nc(N3CCCC(C(=O)NC4CCCC4)C3)sc2c1 (centres undefined) | -14% | -6%
O=C(CN1C(=O)CC(c2ccccc2)=Nc2ccccc21)NC1CCCCC1 | 28% | 1%
CCOC(=O)C(C)Sc1nnc(NC(=O)c2ccc3c(c2)OCO3)s1 (centres undefined) | 25% | -3%
CC(C)CNC(=S)N1CCN(Cc2ccc3c(c2)OCO3)CC1 | -12% | -5%
NS(=O)(=O)c1ccc(NC(=O)Cn2nc(C(=O)O)c3ccccc3c2=O)cc1 | -23% | 0%
CCC(=O)c1ccc(SC(=O)N(C)C)cc1O | 6% | 1%
CCCCn1c(N)c(N(CC(C)C)C(=O)CC2OC(=O)c3ccccc32)c(=O)[nH]c1=O (centres undefined) | 0% | -5%
COc1ccc(CNC(=O)c2cc(-c3ccco3)on2)cc1 | 2% | 7%
Cc1ccc(NC(=O)CCNS(=O)(=O)c2ccc(OC(F)(F)F)cc2)c(O)c1 | -10% | 1%
Cc1cccc(Nc2nnc(SCC(=O)Nc3cccnc3Cl)s2)c1 | -3% | -3%
Clc1ccc(Cc2nnc(-c3ccccc3Br)o2)cc1 | 1% | -28%
O=C(COc1ccc(Br)cc1)OCCN1CCCCC1 | 1% | 6%
O=C(COc1ccccc1)N1CCN(C(=O)c2ccc([N+](=O)[O-])cc2)CC1 | 11% | -10%
COc1ccccc1Cc1noc(C(C)(C)NC(=O)c2ccccc2)n1 | -1% | -5%
CCOc1ccccc1NC(=O)COC(=O)CC(C)(C)CC1=NS(=O)(=O)c2ccccc2N1 | 4% | -19%&4%
CC(C)c1ccc(NC(=O)CSC2=Nc3ccccc3C3=NC(CC(=O)NCc4cccs4)C(=O)N23)cc1 (centres undefined) | . | -5%
CCOc1ccc(OCC)c(NC(=O)Nc2ccc3c(c2)N(C)C(=O)CS3)c1 | -12% | ?
COc1ccccc1/C=C1\SC(=S)N(CC(=O)Nc2nnc(C)s2)C1=O | -21% | .
Cc1ccccc1CN1C(=O)c2ccccc2Sc2ccc(C(=O)NCc3ccccc3)cc21 | . | -11%
Cc1ccc(OCC(=O)Nc2cccc(S(=O)(=O)N3CCCCCC3)c2)cc1C | -11% | -10%
CCOc1ccc2c(c1)c(=O)c(C(=O)c1ccc3c(c1)OCO3)cn2Cc1ccc(F)cc1 | . | -2%
CCCCc1c(O)nc(SCCC(=O)O)[nH]c1=O | -18% | .
CCOC(=O)c1c(CN2CCOCC2)n(-c2ccccc2)c2ccc(O)cc12 | 21% | ?
CCCCCCCC(=O)Nc1ccc(C(=O)N/N=C/c2cccc([N+](=O)[O-])c2)cc1 | 4% | 2%
O=C(COC(=O)CN1C(=O)NC2(CCCC2)C1=O)Nc1ccccc1C(F)(F)F | 4% | 1%
Cc1cc(C)cc(N2C(=O)C3C4C=CC(C4)C3C2=O)c1 (centres undefined) | 4% | -3%
Cc1ccc(C)c(S(=O)(=O)Nc2ccc(C(=O)NCC(c3ccco3)N(C)C)cc2)c1 (centres undefined) | -19% | 1%
COc1ccc2c(COC(=O)CC3Sc4ccccc4NC3=O)cc(=O)oc2c1 (centres undefined) | 3% | -3%
O=C(NC(C(=O)c1ccccc1)n1cnccc1=O)c1ccccc1 (centres undefined) | -18% | -2%
CCn1c(N)c(C(N)=O)sc1=S | 0% | -3%
Cc1nnc(SCC(=O)NC2CCCCCC2)n1N | . | -1%
Fc1ccc(N2CN(Cc3cccnc3)CNC2=S)cc1 | -2% | 9%
CCn1c(=O)n(CC)c2cc(S(=O)(=O)Nc3c(C)cccc3C)ccc21 | 2% | 15%

Reprinted from the part before: 4 entries; new compounds follow.
SMILES | N370S GC | FEN1 inhibitor
CCn1c(N)c(C(N)=O)sc1=S | 0% | -3%
Cc1nnc(SCC(=O)NC2CCCCCC2)n1N | . | -1%
Fc1ccc(N2CN(Cc3cccnc3)CNC2=S)cc1 | -2% | 9%
CCn1c(=O)n(CC)c2cc(S(=O)(=O)Nc3c(C)cccc3C)ccc21 | 2% | 15%
CC(C)OC(=O)/C(=C/c1ccc(Br)cc1)NC(=O)c1ccco1 | 12% | -5%
Cc1ccc(S(=O)(=O)N2CCN(C(=O)N(c3ccccc3)c3ccccc3)CC2)cc1 | . | -16%
CCCN(CCC)Cc1c(C(=O)N/N=C/c2ccc(C)o2)nnn1-c1nonc1N | 3% | 10%
CN(NC(=S)Nc1ccc(OC(F)F)cc1)C(=S)Nc1ccc(OC(F)F)cc1 | 6% | -16%
CCN(CCCNC(=O)C1CCN(S(=O)(=O)c2cccc3nonc23)CC1)Cc1ccccc1 | -1% | -12%
O=C1OC(/C(=C\Nc2ccc(F)cc2F)[N+](=O)[O-])c2ccccc21 (centres undefined) | -13% | -2%
CCOC(=O)C1CCCN(C(=O)c2cn(-c3ccccc3)nc2-c2cccnc2)C1 (centres undefined) | -17% | 3%
CCOC(=O)N1CCN(c2c(NCCN3CCCCC3CC)c(=O)c2=O)CC1 (centres undefined) | 2% | -10%
COc1ccc(OC)c(CCNC(=O)CS(=O)(=O)Cc2nc(-c3ccccc3C)oc2C)c1 | -18% | -7%
Cn1c(CCN2CCOCC2)nc2cc(NC(=O)COc3ccc(Cl)cc3)ccc21 | -6% | -3%
Cc1ccc(-c2cc(C(F)(F)F)n3nc(C(=O)Nc4ccon4)cc3n2)cc1C | -3% | -12%
COc1ccc(-n2cnnc2SCC(=O)Nc2cccc([N+](=O)[O-])c2)cc1 | -4% | -6%
Cc1ccccc1-n1c(Cn2c(=O)sc3ccccc32)nnc1SCC(=O)NCC1CCCO1 (centres undefined) | -3% | -9%
COc1cccc(NS(=O)(=O)c2cc3c4c(c2)CCC(=O)N4CCC3)c1 | -1% | 2%
CCCS(=O)(=O)N1CCCC(C(=O)NCCN2CCOCC2)C1 (centres undefined) | 3% | 8%
COc1ccc(S(=O)(=O)N2CCC(NC(=O)OCc3c(Cl)cccc3Cl)CC2)cc1 | 3% | 9%
Cc1ccc(P(=O)(CSC(=N)N)c2ccc(C)cc2)cc1 | -18% | -7%
Cc1occc1C(=O)NCCc1cccc(Cl)c1 | 6% | -1%
Cc1cc(=O)[nH]c2cc(Cl)ccc12 | 1% | -17%
CCc1ccc(NC(=O)C(=O)NNC(=O)COc2cccc(OC)c2)cc1 | 2% | 3%
CC1(C)CCc2c([nH]c3ccccc3c2=O)O1 | 5% | 15%
COc1ccc(CNC(=O)c2ccc(NC(=O)N3CCSc4ncccc43)cc2)c(OC)c1 | . | -2%
O=C(COC(=O)Cc1c(Cl)cccc1Cl)NCCC1=CCCCC1 | 8% | 16%
COc1ccc(CNCc2cc(Cl)ccc2O)cc1 | -16% | -13%
O=c1[nH]c2cc3c(cc2cc1CN(Cc1ccco1)C(=S)NCC1CCCO1)OCCO3 (centres undefined) | -11% | -18%
O=C(CCc1ccccc1)NNC(=O)c1ccccc1C(=O)O | 3% | 1%
CCOC(=O)c1c(NC(C)=O)sc2c(O)c(Br)cc(Br)c12 | -13% | 4%
COc1ccc(-c2cc(C(=O)NC(C)c3ccccc3)c3cc(C(C)C)ccc3n2)cc1 (centres undefined) | . | -5%
CC(C)Cn1nc(C(=O)OCC(=O)NCC(F)(F)F)c2ccccc2c1=O | -1% | -10%
O=C(COC(=O)CCc1nc2ccccc2c(=O)[nH]1)Nc1ccc2c(c1)OCO2 | -3% | 15%
CCC1(c2ccccc2)NC(=O)N(CC(=O)Nc2ccc(OC)nc2)C1=O (centres undefined) | -11% | -1%
O=C(O)COc1ccc(/C=N/NC(=O)COc2nsnc2N2CCOCC2)cc1 | -1% | -8%
Cc1cccc(NC(=O)CS(=O)(=O)c2cn(C)c3ccccc23)c1 | 2% | 5%
COc1ccc2cc(/C(C)=N/NC(=O)c3cc(-c4cccnc4)nc4ccccc34)ccc2c1 | 24% | -15%
Cn1cc(CNC(=O)/C=C/c2ccc(Cl)cc2)cn1 | 26% | 8%
COc1ccc(CNC(=O)CCc2c(C)nn(-c3ccc(N4CCCCC4)nn3)c2C)cc1 | . | -1%
Cc1noc(NS(=O)(=O)c2ccc(N/C=C/C(=O)c3cccnc3)cc2)c1C | -10% | -5%
CCCCOCCCNC(=O)N[C@H](C(=O)OC)C(C)CC (some centres undefined) | -3% | 2%
Cc1cnc(C(=O)Nc2ccc(C(=O)N(C)C3CCCCC3)cc2)cn1 | -6% | .
CN(c1cccc(Cl)c1)S(=O)(=O)c1cccc(C(=O)NCc2ccncc2)c1 | . | 14%
CNC(=O)c1ccc(CNC(=O)OCc2ccccc2)cc1 | -3% | 14%
COc1ccc(C2/C=C\CN(C(=O)NC(C)C)CC(=O)N2Cc2ccc(F)cc2)cc1 (centres undefined) | -5%&-1% | -4%&4%
COc1ccc(NC(=O)CN2CCCN(S(=O)(=O)c3ccc(F)cc3)CC2)c(OC)c1 | -11% | -3%
Cc1ccc(N(CC(O)CN2CCCCC2)S(=O)(=O)c2ccccc2)cc1 (centres undefined) | -8% | -8%
COc1ccc(C(=O)OCC(=O)Nc2ccc([N+](=O)[O-])cc2OC)c(O)c1 | ? | 5%
COc1ccc(Cl)cc1C(=O)NCc1cn(C)nc1C | 14% | -9%
O=C(C1CCCN(S(=O)(=O)c2cccc3nsnc23)C1)N1CCN(c2cccc(Cl)c2)CC1 (centres undefined) | . | -14%
CCCCN(C(=O)C(C)N1C(=O)c2ccccc2C1=O)c1c(N)n(CC(C)C)c(=O)[nH]c1=O (centres undefined) | . | 2%
O=C(Nc1ccc([N+](=O)[O-])cc1)C1CC12CCC2 (centres undefined) | -6% | 2%

One compound at a time, as listed above.
Cc1ccc(N(CC(O)CN2CCCCC2)S(=O)(=O)c2ccccc2)cc1 (centres undefined) is listed with N370S GC: -8%; FEN1 inhibitor: -8%
O=C(Nc1ccc([N+](=O)[O-])cc1)C1CC12CCC2 (centres undefined) is listed with N370S GC: -6%; FEN1 inhibitor: 2%

Screening results from PubChem BioAssay.
